# B2AR arrestin = qHTS assay of beta-arrestin-biased ligands of beta2-adrenergic receptor | Beta-2 adrenergic receptor (Homo sapiens), P07550 | beta-arrestin recruitment to beta2AR, cell-based reporter | Potency, µM (highest dose often 46.1 µM), for the others: top-dose activation, actives largely listed as activators | 330,000 compounds, 0.02% hits | AID 492947, 2010;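 also: potency is read from the fitted curve at half-maximal effect; 0% = DMSO controls and full agonism = EC100 isoproterenol or metaproterenol; nearly all actives have a fitted effect of over 65% in size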
# Menin-MLL TR inh = qHTS Assay for Inhibitors Targeting the Menin-MLL Interaction in MLL Related Leukemias: Competition With Texas Red Labeled MLL-derived Mutant Peptide | O00255 | Menin + Texas Red MLL mutant peptide, fluorescence polarization | Potency, µM (series often up to 61.6 µM), inactives show top-dose FP activity change, negative = inhibition, hits mostly inhibitors | 270,000 compounds, 0.23% hits; active = well fitted inhibition curve with a large enough effect in the polarisation, with a control signal flat, not every such curve was filed as active; inconclusive = small, poorly fitted or top-dose-only effect, or effect the other way, or a change in a side signal; inactive = no such curve, though single readings can be large or run the other way; the % refers to the polarisation; also: potency is read from the fitted curve at half-maximal effect; % of control where 0% means no effect; many of its hits are not listed in these tables
# Target sequence (O00255 whole entry, looked up): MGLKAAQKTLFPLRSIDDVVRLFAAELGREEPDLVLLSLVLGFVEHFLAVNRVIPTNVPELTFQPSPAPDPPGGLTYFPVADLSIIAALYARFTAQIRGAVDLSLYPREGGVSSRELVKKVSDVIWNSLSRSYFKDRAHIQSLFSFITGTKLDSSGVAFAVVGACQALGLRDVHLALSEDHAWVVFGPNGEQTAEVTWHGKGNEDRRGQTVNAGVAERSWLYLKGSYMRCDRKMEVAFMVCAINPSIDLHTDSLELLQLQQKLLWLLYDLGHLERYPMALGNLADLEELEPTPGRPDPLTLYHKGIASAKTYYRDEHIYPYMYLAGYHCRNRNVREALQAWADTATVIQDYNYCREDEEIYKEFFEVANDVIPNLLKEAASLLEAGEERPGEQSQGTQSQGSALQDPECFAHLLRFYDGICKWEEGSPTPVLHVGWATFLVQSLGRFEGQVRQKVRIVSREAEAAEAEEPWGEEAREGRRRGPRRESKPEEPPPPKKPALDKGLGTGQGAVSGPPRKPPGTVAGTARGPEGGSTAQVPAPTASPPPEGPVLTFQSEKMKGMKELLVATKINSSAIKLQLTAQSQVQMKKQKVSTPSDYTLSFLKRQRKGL
# CXXC DNA block = qHTS Fluorescence Polarization Assay for Inhibitors of MLL CXXC domain - DNA interaction; Histone-lysine N-methyltransferase 2A (Homo sapiens), Q03164; Potency, µM (titrated, usually from 115 µM), without a hit: at the top dose activity change, negative = inhibition, most hits filed as inhibitors; 290,000 compounds, 0.037% hits; AID 2662, 2010; MLL-CXXC / FITC-HOXA9 DNA fluorescence polarization; active = well fitted inhibition curve with a large enough effect in the polarisation, with a control signal flat, not every such curve was filed as active; inconclusive = small, poorly fitted or top-dose-only effect, or effect the other way, or a change in a side signal; inactive = no such curve, though single readings can be large or run the other way; the % refers to the polarisation; also: potency is read from the fitted curve at half-maximal effect
#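 Purified MLL-CXXC (added from a 7 uM solution) was preincubated 5 min at ambient with pinned compounds in 50 mM Tris-HCl pH 7.5, 50 mM NaCl, 1 mM DTT, 0.05% BSA. Fluorescein-labeled HOX-A9 DNA (50 nM solution) followed, 30 min, then polarization read.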
# FBPA coupling cs = qHTS Assay for Inhibitors of Fructose-1,6-bisphosphate Aldolase from Giardia Lamblia: Coupling assay counterscreen. coupling enzyme system counterscreen, AmpLite Red fluorescence. activity change, negative = inhibition, % at 58.2 µM, hits read low. 290,000 compounds, 0.67% hits; in the data active = activity change below about -30%; also: % is scaled to controls: 0 for no effect and ±100 for the full control effect
#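 Activity here indicates interference with the coupling reaction, not aldolase inhibition. Compounds at 57.5 uM final met coupling enzymes for 10 min at RT; substrate and AmpLite Red detection followed, with a 525/598 nm fluorescence read after 20 min.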
# Giardia killer = Small Molecules that selectively kill Giardia lamblia: qHTS. Giardia lamblia trophozoite viability. activity change, % at 7.66 µM, hits read low. 340,000 compounds, 0.15% hits. AID 540267, 2011; in the data active = activity change below about -80%; inconclusive = between about -30% and that limit;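 also: parasites exposed to compound for two days anaerobically before the ATP read; % is scaled to controls: 0 for no effect and ±100 for the full control effect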
#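 Trophozoites 100 cells/well + cpd; 48 hrs, 37 deg C, anaerobic. ATPLite 1-Step added, 15-30 min RT, luminescence read (ATP-based viability).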
# KCNH2 3.1 inh = qHTS for Inhibitors of KCHN2 3.1: Mutant qHTS. Potassium voltage-gated channel subfamily H member 2, brain isoform KCNH2 3.1 (human). U2OS KCNH2 3.1, thallium flux FluxOr; hits give low values. activity change, % (tested at about 1.8 µM). 340,000 compounds, 0.95% hits. AID 720553, 2013;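 active = maximum activity change below -70%; inconclusive = maximum activity change from -70% to -50%; inactive = maximum activity change above -50%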;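 also: thallium influx rate constant from kinetic fluorescence after stimulation buffer; % is scaled to controls: 0 for no effect and ±100 for the full control effect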
#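 We transduce U2OS cells with the mutant 3.1 virus, culture them overnight, load FluxOr with Red40 quencher for 45 min, then add stimulation buffer and read kinetically for 2 min to derive a normalized rate constant.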
# KCNH2 WT inh = qHTS for Inhibitors of KCHN2 3.1: Wildtype qHTS; U2OS, BacMam KCNH2, thallium flux FluxOr; hits give low values; 340,000 compounds, 0.37% hits; AID 720551, 2013; Voltage-gated inwardly rectifying potassium channel KCNH2 (Homo sapiens), Q12809; activity change, % at 1.84 µM;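 active = maximum activity change below -70%; inconclusive = maximum activity change between -70% and -50%; inactive = maximum activity change above -50%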; also: % is scaled to controls: 0 for no effect and ±100 for the full control effect
#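 U2OS cells were transduced with wild-type KCNH2 virus (2.03 x 10^8 / mL) for 4 h at room temperature, then cultured overnight at 37 C. Thallium flux was read with FluxOr dye. Rate constants were normalized to DMSO controls.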
# GALK inhibitor = qHTS Assay for Inhibitors of Human Galactokinase (GALK). AID 1868, 2009. 270,000 compounds, 0.007% hits. Potency, µM (top dose mostly 57.5 µM), inactives show at the top dose activity change, negative = inhibition, most hits filed as inhibitors. Purified GALK, Kinase-Glo residual ATP luminescence; also: potency is read from the fitted curve at half-maximal effect; % is scaled to controls: 0 for no effect and ±100 for the full control effect
#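 GALK at 5 nM final was combined with compound, 35 uM ATP and 100 uM galactose in HEPES pH8.0 with MgCl2 and DTT. The reaction ran one hour at room temperature before luminescent ATP detection.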
# TRPV1 agonist = HTS Assay for Compounds that Act as Agonists of the Vanilloid Receptor 1; Transient receptor potential cation channel subfamily V member 1 (Homo sapiens), Q8NER1; TRPV1-expressing cells, Fluo-8 calcium influx, agonist mode; activation, % at 8.33 µM; 320,000 compounds, 0.19% hits; AID 540275, 2011; in the data active = activation above about 80%; inconclusive = between about 30% and that limit; also: 0% is about no effect
#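 TRPV1-expressing cells were cultured overnight at 35.5C and loaded with Fluo-8 calcium dye for 40 to 90 min at room temperature. After a 10 s baseline, compound was added and calcium influx was read kinetically for 3 min (ex 480/em 520 nm).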
# USP2a block = qHTS Assay for Inhibitors of Ubiquitin-specific Protease USP2a Using CHOP2 as the Reporter | Ubiquitin carboxyl-terminal hydrolase 2 (Homo sapiens), O75604 | USP2 core, Ub-CHOP2 coupled fluorogenic reporter, 485/531 | Potency, µM (top dose mostly 38.3 µM), for inactives: at the highest dose activity change, negative = inhibition, actives largely listed as inhibitors | 330,000 compounds, 0.01% hits;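 also: potency is read from the fitted curve at half-maximal effect; plate controls were DMSO wells for no effect and full inhibition by NEM control for full effect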
#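 Cell-free coupled assay: 10nM USP2 core preincubated 30min RT with compound in Tris-HCl pH 8.0/CaCl2/CHAPS buffer, then 25nM Ub-CHOP2 and 25nM reporter substrate; fluorescence (Ex 485/Em 531) read after 60min RT, normalized to NEM inhibition, concentration-response curves fitted.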
# An asterisk follows results filed as active; ? = inconclusive; . = no result given; [ ] = dose if it differs, or a comment. Unless noted, calls follow the shape of the dose curve; as a rule, active = well fitted curve in the direction sought with a large enough effect; inconclusive = small, poorly fitted or top-dose-only effect, or another doubt; inactive = no such curve, though single readings can be large; an effect the other way counts as inactive or inconclusive.
# Every second line gives: B2AR arrestin	Menin-MLL TR inh	CXXC DNA block	FBPA coupling cs	USP2a block	TRPV1 agonist	KCNH2 WT inh	KCNH2 3.1 inh	Giardia killer	GALK inhibitor
1. CCOC(=O)N1CCN(C(=O)c2ccc3c(=O)n(Cc4ccccc4)c(=S)[nH]c3c2)CC1
  -0.3%	.	-4.0%	-1.4	3.2%	.	-3.9	-0.6	-11.0	-5.4%
2. COc1cc2c(cc1O)C(SC)=NC(C)(C)C2
  0.1%	0.6%	9.5%	0.4	-0.5%	-1.7	-0.5	-9.3	21.3	-5.7%
3. CCOP(=O)(OCC)C(Nc1ccccc1)c1cc(OC)ccc1OC (stereo not given)
  0.0%	-10.9%	6.5%	-0.3	1.3%	8.2	5.8	2.6	16.4	-2.1%
4. C/C(=N\NS(=O)(=O)c1ccc([N+](=O)[O-])cc1)c1ccc2c(c1)OCO2
  0.5%	21.3%	7.8%	-4.2	0.1%	0.6	-0.4	13.2	-18.9	-3.4%
5. CCOC(=O)Cn1c(=O)oc2cc(S(=O)(=O)Nc3cc(Cl)ccc3OC)ccc21
  0.1%	0.1%	3.5%	-2.4	?	12.8	2.5	-6.1	8.3	1.3%
6. CCCCN1C(=O)CC(Nc2ccc(CC)cc2)C1=O (stereo not given)
  0.4%	38.4%[activator]	-0.5%	2.5	-1.2%	?	-4.5	12.2	3.0	1.1%
7. O=C(COc1ccc(Cl)cc1)OCC(=O)N1CCCc2ccccc21
  0.2%	8.2%	4.6%	0.8	-1.1%	-1.7	0.6	9.6	-13.0	0.7%
8. Cc1ccc(S(=O)(=O)NNC(=O)c2sc(=S)n(C)c2C)cc1
  0.4%	6.6%	1.6%	5.6	3.0%	1.7	-8.7	10.8	-1.3	0.5%
9. [2H]C(CCOS(N)(=O)=O)c1ccc(C(C)(C)C)cc1 (stereo not given)
  -0.7%	1.2%	2.5%	-3.5	2.0%	?	.	.	0.9	.
10. Cc1cccc(NC2=C(Cl)C(=O)OC2OC(=O)c2ccco2)c1 (stereo not given)
  -0.6%	9.0%	97.6%[activator]	3.4	2.9%	24.0	4.3	-12.6	15.0	-3.8%
11. CCCOc1ccc(S(=O)(=O)NCCCN2CCOCC2)c2ccccc12
  0.3%	-28.8%	9.7%	0.2	-0.4%	10.4	-206.4*	-13.3	1.5	-2.6%
12. COc1ccccc1CCN1CCCC(CN(C)C(=O)CCC(N)=O)C1 (stereo not given)
  -0.6%	4.2%	-4.5%	0.2	-0.7%	-1.9	5.0	-4.5	9.8	3.6%
13. CCS(=O)(=O)N1CCCC(C(=O)NCCN(C)Cc2ccccc2)C1 (stereo not given)
  -0.3%	1.8%	0.7%	0.8	0.7%	0.0	-4.5	-0.1	8.8	1.7%
14. Fc1ccc(NC(=S)N2CCn3cccc3C2c2cccnc2)cc1 (stereo not given)
  0.0%	-4.9%	9.9%	-1.3	-1.9%	16.8	35.4	-10.0	-23.9	1.1%
15. N#CCn1c(CN2CCCC2)nc2ccccc2c1=O
  -0.8%	6.7%	7.9%	0.6	0.4%	-0.3	-0.2	-29.2	-20.8	-3.0%

# Arranged by the number under GALK inhibitor (falling): some entries from above
nr	Compound	B2AR arrestin	Menin-MLL TR inh	CXXC DNA block	TRPV1 agonist	GALK inhibitor
12	COc1ccccc1CCN1CCCC(CN(C)C(=O)CCC(N)=O)C1 (stereo not given)	-0.6%	4.2%	-4.5%	-1.9	3.6%
4	C/C(=N\NS(=O)(=O)c1ccc([N+](=O)[O-])cc1)c1ccc2c(c1)OCO2	0.5%	21.3%	7.8%	0.6	-3.4%
10	Cc1cccc(NC2=C(Cl)C(=O)OC2OC(=O)c2ccco2)c1 (stereo not given)	-0.6%	9.0%	97.6%[activator]	24.0	-3.8%

# (next part)
# Every second line gives: B2AR arrestin	Menin-MLL TR inh	CXXC DNA block	FBPA coupling cs	USP2a block	TRPV1 agonist	KCNH2 WT inh	KCNH2 3.1 inh	Giardia killer	GALK inhibitor
16. Cc1ccc(-c2cc(C(=O)NCc3cccs3)no2)cc1
  -0.3%	-3.3%	5.2%	6.4	0.2%	1.2	-6.1	-3.0	12.2	0.7%
17. COc1ccccc1C(=O)NNC(=O)c1ccc2ccccc2c1
  0.4%	3.4%	2.0%	1.9	0.7%	-3.8	-9.1	-16.7	-3.7	6.1%
18. O=C(NCCN1CCCC1)c1ccccc1Cl
  -0.1%	-0.8%	1.4%	6.0	1.6%	-0.8	-0.9	9.4	-16.7	4.2%
19. CCN(CC)CCNC(=O)/C(=N\O)c1ccccn1
  0.0%	-9.9%	1.2%	-0.3	1.3%	-1.6	.	21.8	-0.3	5.3%
20. CCCCC(=O)Nc1ccc2c(c1)C(=O)NC2=O
  0.2%	8.1%	3.0%	1.0	2.7%	2.1	4.0	8.6	3.0	1.9%

# Only B2AR arrestin, KCNH2 3.1 inh and USP2a block (3 entries from above):
no. | compound | B2AR arrestin | KCNH2 3.1 inh | USP2a block
13 | CCS(=O)(=O)N1CCCC(C(=O)NCCN(C)Cc2ccccc2)C1 (stereo not given) | -0.3% | -0.1 | 0.7%
14 | Fc1ccc(NC(=S)N2CCn3cccc3C2c2cccnc2)cc1 (stereo not given) | 0.0% | -10.0 | -1.9%
15 | N#CCn1c(CN2CCCC2)nc2ccccc2c1=O | -0.8% | -29.2 | 0.4%

# Entries by screen from the list:
# Entries 16–20 in USP2a block: 0.2%, 0.7%, 1.6%, 1.3%, 2.7%

# Screens from PubChem.

# An excerpt (hit frequency here may not be typical).
